Cruzain Triton: inhibitors of Trypanosoma cruzi cruzain with detergent; P25779; purified cruzain, Z-FR-AMC fluorescence, 0.01% Triton; Potency, µM, for the others: max response, negative = inhibition, hits mostly inhibitors; 0.43% of 200,000 active;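 note: plate controls were neutral wells for no effect and buffer without enzyme for full effect; nearly all actives have a fitted effect of over 40% in size; top concentration of the series not given in the record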
Target sequence (P25779 123-467 limits assumed): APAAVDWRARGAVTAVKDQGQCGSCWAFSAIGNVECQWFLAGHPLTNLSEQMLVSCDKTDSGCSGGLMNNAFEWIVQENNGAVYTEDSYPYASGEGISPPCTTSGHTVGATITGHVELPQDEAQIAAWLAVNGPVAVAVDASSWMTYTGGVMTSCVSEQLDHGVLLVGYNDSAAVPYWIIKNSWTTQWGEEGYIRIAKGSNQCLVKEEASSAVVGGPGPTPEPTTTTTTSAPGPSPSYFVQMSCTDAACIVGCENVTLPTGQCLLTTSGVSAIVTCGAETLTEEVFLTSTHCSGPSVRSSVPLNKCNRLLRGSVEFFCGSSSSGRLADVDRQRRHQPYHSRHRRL
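Compounds were screened in titration against cruzain (1.5 nM) with 0.01% Triton X-100 to counter colloidal aggregation. Activity was the AMC fluorescence increase over 60 s after adding 2 uM Z-FR-AMC at pH 5.5.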
RE007 growth inh: less growth of the S. pombe RE007 Vpr strain. S. pombe RE007 Vpr strain, BacTiter-Glo ATP luminescence, 24 h; control for the full effect not named in the record. Potency, µM (series often up to 92.2 µM), without a hit: at the highest dose activity change, negative = less growth. 0.21% of 360,000 active. AID 651644; active = well fitted falling curve with a large enough effect; inconclusive = small, poorly fitted or top-dose-only effect; inactive = no such curve, though single readings can be large or run the other way;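 note: % is set by controls: 0 for no effect and ±100 for the full control effect; nearly all actives have a fitted effect of over 50% in size; the assay follows cell death caused by Vpr and the record does not say whether a fall means rescue or toxicity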
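Fission yeast RE007 carrying one integrated HIV-1 vpr copy, seeded at OD 0.01 in PMG+AL medium with 23 nL pinned compound. Grown 24 h at 30 degrees; viability read by BacTiter-Glo luminescence after 5 min.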
Marburg entry inh: inhibitors of Marburg virus binding or cell entry; Marburg virus pseudotyped entry inhibition, cell reporter; control for the full effect not named in the record; about a third of the inactives were read at about 46 µM; Potency, µM (titrated, usually from 37.8 µM), for the others: at the highest dose activity change, negative = inhibition, most hits filed as inhibitors; 1.8% of 300,000 active; AID 540276; active = well fitted inhibition curve with a large enough effect; inconclusive = small, poorly fitted or top-dose-only effect, or effect the other way; inactive = flat fitted curve, though single readings scatter; tested in HEK293 cells; about a fifth of its hits are not listed in these tables; note: % is set by controls: 0 for no effect and ±100 for the full control effect; luciferase read-out
NS1 inh: influenza NS1 inhibition. 0.4% of 270,000 active. Potency, µM (highest dose often 46.1 µM), for the others: at the top dose activity, positive = more growth. S. cerevisiae slowed by influenza A NS1, growth recovery by OD600; active means well fitted rising curve with a large enough effect; inconclusive means small, poorly fitted or top-dose-only effect; inactive means no such curve, though single readings can be large or run the other way; note: nearly all actives have a fitted effect of over 50% in size
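Growth recovery, yeast-based: influenza A NS1 expressed in S. cerevisiae causes slow growth, and suppressors are detected by OD600. The parent strain without NS1 is used as positive control.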
2A StopGo: FMDV 2A StopGo reporter, luciferase signal. 1.2% of 410,000 active. Potency, µM (series often up to 57.9 µM), without a hit: at the highest dose signal change, negative = less light. human cells with a luciferase reporter of 2A StopGo recoding; control for the full effect not named in the record. AID 1159524; active = well fitted falling curve with a large enough effect; inconclusive = small, poorly fitted or top-dose-only effect; inactive = no such curve, though single readings can be large or run the other way; tested in HEK293T cells; note: % is set by controls: 0 for no effect and ±100 for the full control effect; nearly all actives have a fitted effect of over 45% in size; luciferase light after 4 h
SARS PLpro yeast: SARS-CoV PLP inhibition in yeast. S. cerevisiae expressing SARS-CoV PLpro, growth rescue; control for the full effect not named in the record. Potency, µM (series often up to 32.9 µM), for the others: at the highest dose activity, positive = growth rescue. 0.19% of 330,000 active. AID 485353; active means well fitted rising curve with a large enough effect; inconclusive means small, poorly fitted or top-dose-only effect; inactive means no such curve, though single readings can be large or run the other way; note: 0% is about no effect; nearly all actives have a fitted effect of over 55% in size; growth read by luminescence after 48 h
Lassa entry inh: blocks Lassa virus binding to or entry into cells; Lassa virus pseudotype entry inhibition, cell reporter; control for the full effect not named in the record; 1.2% of 300,000 active; Potency, µM (top dose mostly 37.9 µM), without a hit: top-dose activity change, negative = inhibition, actives largely listed as inhibitors; active means well fitted inhibition curve with a large enough effect; inconclusive means small, poorly fitted or top-dose-only effect, or effect the other way; inactive means flat fitted curve, though single readings scatter; tested in HEK293 cells; note: % is set by controls: 0 for no effect and ±100 for the full control effect; nearly all actives have a fitted effect of over 50% in size; luciferase read-out
Cruzain noTriton: inhibitors of Trypanosoma cruzi cruzain without detergent. purified cruzain, Z-FR-AMC fluorescence, no detergent. Potency, µM, for the others: max response, negative = inhibition, most hits filed as inhibitors. 2.3% of 200,000 active. AID 1476;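 note: plate controls were enzyme without inhibitor for no effect and buffer without enzyme for full effect; nearly all actives have a fitted effect of over 40% in size; top concentration of the series not given in the record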
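Detergent-free condition (0.00005% Triton X-100) in acetate buffer pH 5.5 with DTT. 1.5 nM enzyme and compound were pre-mixed 15 min, then 2 uM Z-FR-AMC substrate added; reaction progress from fluorescence change between first and third reads (60 s).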
* hit, by the source's call; ? = inconclusive; · = no result given; & = joins results of further samples; [ ] = another dose, or the depositor's remark. Unless noted, calls come from the whole dose curve; as a rule, active = well fitted curve in the direction sought with a large enough effect; inconclusive = small, poorly fitted or top-dose-only effect, or another doubt; inactive = no such curve, though single readings can be large; an effect the other way counts as inactive or inconclusive. Potency is the fitted concentration of half-maximal effect.

SMILES	Cruzain Triton	RE007 growth inh	Marburg entry inh	NS1 inh	2A StopGo	SARS PLpro yeast	Lassa entry inh	Cruzain noTriton
O=C(/C=C/C(Cl)(Cl)Cl)Nc1ccc(Cl)cc1	·	?	-20%	·	-22%	·	-18%	·
O=C(Nc1scc(-c2ccc(F)cc2)c1C(=O)O)c1ccco1	-4.0%	-15%	?	-138%	18%	-9%	0%	-6%
O=C1N(c2ccccc2)C(c2ccc(Cl)cc2)N2CCCN12 (stereo not drawn)	-1.6%	-2%	10%	2%	-6%	13%	5%	8%
CCOC(=O)N1CCN(CC(=O)Nc2c(C(=O)OC)[nH]c3ccc(Cl)cc23)CC1	0.9%	5%	?	-46%	32µM*	-5%	?	?
CCCN1CCN(S(=O)(=O)c2ccc(-n3cnnn3)cc2)CC1	·	-3%	·	-14%	-6%	1%	·	·
Cc1ccc(C(=O)N2CCC3(CC2)Oc2ccc(Cl)cc2C(=O)C32CC(c3ccccc3)=NO2)s1 (stereo not drawn)	·	3%	·	5%	-12%	0%	·	·
Cn1c(=O)c2c(ncn2CC(=O)Nc2cc(S(=O)(=O)N3CCCCC3)ccc2O)n(C)c1=O	·	4%	14%	·	-22%	13%	-8%	·
CC(=O)Nc1nc(C)c(Oc2ccccc2)c(=O)[nH]1	4.8%	2%	19%	4%	-9%	1%	-9%	-4%
Cc1ccc(C(=O)CC(C(=O)O)n2cnc([N+](=O)[O-])n2)cc1 (stereo not drawn)	·	-8%	8%[46.1 µM]	3%	-7%	2%	-21%[46.1 µM]	·
CC(NC(=O)Cn1c(=O)oc2cc(S(=O)(=O)NCc3ccccc3)ccc21)c1ccccc1 (stereo not drawn)	-4.4%	·	-6%[46.1 µM]	·	24%	·	·	-1%

Quoted from the listing:
Under Cruzain noTriton, CC(=O)Nc1nc(C)c(Oc2ccccc2)c(=O)[nH]1 reads -4%
Under 2A StopGo, O=C(/C=C/C(Cl)(Cl)Cl)Nc1ccc(Cl)cc1 reads -22%

(next part)
SMILES	Cruzain Triton	RE007 growth inh	Marburg entry inh	NS1 inh	2A StopGo	SARS PLpro yeast	Lassa entry inh	Cruzain noTriton
O=C(CCN1CCCC1)Nc1cccc(Br)c1	2.1%	0%	-1%	-3%	0%	-9%	-4%	6%
Nc1cc(N2CCNCC2)c([N+](=O)[O-])cc1Cl	-1.3%	6%	?	-7%	0%	-11%	10%	3%
O=C(/C=C/c1ccccc1)NCCCNC(=O)/C=C/c1ccccc1	·	0%	-1%[46.1 µM]	·	5%	0%	13%	·
Cn1c(=NC(=O)COc2ccccc2)sc2cccc(F)c21	·	-2%	·	-3%	8%	2%	·	·
CCn1c2ccccc2c2nnc(SCC(=O)c3ccccc3)nc21	-3.0%	-5%	3%	-6%	-4%	1%	-18%	?
CCOc1ccc(C(c2c(NC(=O)c3ccccc3)sc(C)c2C)N2CCN(CCO)CC2)cc1 (stereo not drawn)	-9.7%	55%	8.9µM*	8%	-8%	?	?	-8%
CC(Oc1ccccc1)C(=O)N(CCC1=CCCCC1)c1c(N)n(Cc2ccccc2)c(=O)[nH]c1=O (stereo not drawn)	·	9%	?	5%	-13%	-6%	?	·
Cc1ccccc1-c1noc(-c2ccccc2C(=O)N2CCCC2)n1	-2.0%	7%	-11%	-56%	-14%	-13%	1%	11%
Clc1ccc(-n2ncc3c(NCc4cccnc4)ncnc32)cc1Cl	·	14%	·	0%	-5%	1%	·	·
CCN(CC)C1=CC2=CC(=C(C#N)C#N)CCC2CC1 (stereo not drawn)	-25%	0%	?	11%	-15%	3%	-18%	-10%
C=CCC1(Cl)C(=O)C(Cl)=C(N2CCN(C)CC2)C1(OC)OC (stereo not drawn)	·	1%	·	8%	-20%	1%	·	·
O=c1sc(N2CCN(c3ccc(F)cc3)CC2)nc2ccsc12	-4.3%	13%	·	-13%	38%[activator]	7%	·	-9%
COc1ccc(CCC(C)Nc2ccc(F)c(F)c2)cc1 (stereo not drawn)	-6.2%	-10%	?	3%	-26%	-5%	?	6%
Cc1ccc(C2C(C#N)=C(N)Oc3c2sc2ccccc32)o1 (stereo not drawn)	-26%	·	-2%	0%	·	1%	·	-13%
CCCN(CC(=O)Nc1ccccc1C)C(=O)c1ccc(NC2CC2)c([N+](=O)[O-])c1	·	10%	-22%[46.1 µM]	·	-1%	-3%	15%	·
COc1ccccc1N(C)S(=O)(=O)c1ccc(Cl)c(C(=O)NCCCN2CCOCC2)c1	·	6%	18%	-1%	1%	7%	11%	·
O=C1/C(=C/C=C/c2ccco2)SC(=S)N1c1ccc(O)cc1	·	-15%	·	7%	7%	-8%	·	·
CC(C)(C)NC(=O)Cn1nnc(-c2ccc(S(C)(=O)=O)cc2)n1	-2.2%	3%	1%	7%	10%	1%	15%	1%
CCOC(=O)C(NS(=O)(=O)c1ccccc1)(C(F)(F)F)P(=O)(OC(C)C)OC(C)C (stereo not drawn)	-3.2%	1%	10%	10%	-5%	-1%	-17%	?
CCOC(=O)c1[nH]c(CO)c(C(=O)OCC)c1C	·	-17%	4%[46.1 µM]	-6%	-2%	-1%	-23%[46.1 µM]	·
O=[N+]([O-])c1ccc(/C=C/c2ccc3cccc([N+](=O)[O-])c3n2)cc1	-5.6%	-2%	?	15%	-10%	18%	-15%	13µM*
Cc1cccn2cc(COc3cccc([N+](=O)[O-])c3)nc12	·	?	2%[46.1 µM]	-1%	21%	-1%	0%[46.1 µM]	·
COc1cccc(N=Nc2ccc3ccccc3c2O)c1	·	-7%	·	-1%	-59%	2%	·	·
Cc1ccc(C)c(C2=NNC(=O)CC2)c1	·	-3%	6%	·	-9%	·	5%	·
C/C(Cl)=C/Cn1c(N2CCCC2)nc2c1c(=O)n(C)c(=O)n2C	0.5%	1%	4%[46.1 µM]	-11%	?	24%	-17%	3%
Cc1ccc(CNC(=O)C2(c3cccs3)CCOCC2)cc1	0.2%&0.3%	2%	-2%&-2%	-9%	-6%&-16%	13%	?	10%&-3%
Cc1ccc(C2(CCN)CCOC(C(C)C)C2)cc1 (stereo not drawn)	0.1%	-5%	?	7%	-13%	28%	-1%	-10%
Cc1cccc(OCC(=O)Nc2nc3ccc([N+](=O)[O-])cc3s2)c1	-0.5%	3%	?	-26%	·	-5%	-2%	?
Cc1ccc(NCC(=O)N/N=C\C(Br)=C\c2ccccc2)cc1	1.6%	?	-10%	-9%	·	-7%	?	13µM*
N#CCSc1nc2ccccc2o1	·	1%	?	-2%	-3%	0%	-5%	·
CCN(CC)c1ccc(O)c(C=Nc2ccc(C)c(C)c2)c1	·	-11%	?	-4%	9%	0%	7%[46.1 µM]	·
O=C(c1cc(-c2ccc(Cl)cc2)on1)N1CCc2ccccc2C1	·	-12%	0%[46.1 µM]	-4%	6%	-3%	3%	·
N#CC1(NC(=O)COC(=O)CCN=C2NS(=O)(=O)c3ccccc32)CCCCC1	·	7%	-5%	-7%	24%	1%	-8%	·
O=C1NC(=O)C(=Cc2ccccc2[N+](=O)[O-])C(=O)N1	·	-5%	1%	·	-11%	·	8%	·
CCCCNc1nc2ccccc2c2nc(-c3ccccc3)nn12	-4.5%	·	?	·	-9%	·	·	4%
CC(C)(O)C#Cc1ccc(CN2CCN(Cc3ccsc3)C(CCO)C2)s1 (stereo not drawn)	·	-7%	17%[46.1 µM]	-5%	11%	0%	2%[46.1 µM]	·
C=CCn1c(SCC(=O)c2[nH]c(C)c(C(=O)OC)c2C)nc2scc(-c3ccc(OC)c(OC)c3)c2c1=O	1.1%	-6%	?	18%	?	12%	?	5%
O=C(CN(Cc1ccco1)C(=O)CNS(=O)(=O)c1ccc(Cl)cc1)NCc1ccc(F)cc1	·	7%	2%&-3%	11%	-13%	·	-1%	·
O=C(O)CCCC(=O)Nc1cccc2cccnc12	3.8%	6%	1%	6%	-5%	-9%	-4%	-2%
CCc1ccc(C(=O)NNc2ccc(S(N)(=O)=O)cc2)cc1	·	-16%	19%	0%	39%[activator]	2%	?	·
CCC(C(=O)N1CCN(c2ccccc2F)CC1)n1nc(C)c2sc3ccccc3c2c1=O (stereo not drawn)	-3.0%	·	18%[46.1 µM]	·	-24%	·	?	21%
COC1=C(OC)C(=O)c2ccccc2C1=O	-2.4%	·	?	-20%	·	·	21µM*	3%
CCOC(=O)N1CCN(S(=O)(=O)c2cc([N+](=O)[O-])c(C)cc2C)CC1	·	2%	6%	5%	-19%	12%	13%	·
CCOC(=O)COc1ccccc1C(=O)c1cnn(-c2ccccc2)c1	·	8%	·	-33%	43%[activator]	0%	·	·
COc1ccc(-n2ncc3c2CC(C)(C)CC3NC(=O)c2c(C)cc(=O)oc2C)cc1 (stereo not drawn)	·	9%	·	6%	-8%	-1%	·	·
CC1(C)C2CCC(C2)C1(C)N=C1OC(CCl)CS1 (stereo not drawn)	·	-16%	-10%	0%	-29%	1%	-13%	·
C=CCNC(=S)NN=C1CCC(c2ccccc2)CC1 (stereo not drawn)	·	6%	-2%[46.1 µM]	-7%	-4%	-1%	-9%[46.1 µM]	·
CC1=C(c2ccc(F)cc2)S(=O)(=O)N=C1N1CCC(C(=O)NCCc2ccco2)CC1	-1.2%	·	·	·	-3%	·	6%[46.1 µM]	23%
CCc1ccccc1N1CC(C(=O)Nc2cc(S(=O)(=O)N3CCCC3)ccc2Cl)CC1=O (stereo not drawn)	·	-4%	-15%	·	-4%	3%	?	·
COc1ccc(CN2C(=O)C(NC(=O)c3cccc(C)c3)(C(F)(F)F)N=C2c2ccccc2)cc1 (stereo not drawn)	-5.0%	·	-13%[46.1 µM]	·	-15%	·	-14%[46.1 µM]	5%
Cc1ccsc1C(=O)NC(C)c1ccc2c(c1)OCO2 (stereo not drawn)	-0.7%	3%	10%	-8%	-1%	-5%	-1%	-4%
CN1CCN(C(=O)c2ccc(Cn3cc(Cl)cn3)o2)CC1	·	9%	5%	7%	-10%	2%	2%	·
CCCOc1ccc(CNC(=O)CCCn2ncn3c(cc4sc(CC)cc43)c2=O)cc1	1.5%	·	?	·	-7%	·	·	-9%

Source: PubChem
